# Hsc70 – small molecules displacing fluorescent ligand from Hsc70 – biochemical, fluorescence polarization, primary screen (AID 568); displacement, % at 20 µM; hits with a dose series show IC50 in µM; 83,000 tested, under 10 active; Hsc70 fluorescence polarization, probe displacement; higher % means a stronger effect; strong numbers were not always called active;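 active = displacement above 50% without optical interference and an IC50 on retest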;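 note: ATPase domain with a fluorescein-tagged ATP probe; 0% = vehicle and 100% = excess ADP; read after one hour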
# MT1-MMP reporter – MT1-MMP gene expression reporter suppression – cell-based, luciferase reporter, luminescence (AID 618) | MT1-MMP promoter luciferase reporter cells, luminescence | hit rate 0.62% among 87,000 | calls from a first round at 10 µM; hits with a dose series show EC50 in µM;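 active = over half of the reporter light lost at 10 µM or EC50 under 50 µM; inactive = the rest and hits that failed the dose series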;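 note: actives suppress MT1-MMP promoter-driven transcription so potencies describe inhibitors; HT1080 fibrosarcoma cells; overnight exposure; toxic or luciferase-blocking compounds were not removed from the actives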
# WNV NS2B-NS3 inh – inhibitors of West Nile virus NS2B-NS3 protease; z-score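 (tested at a level between 10 and 100 µM)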; hit rate 0.18% among 65,000; P06935; WNV NS2B-NS3 protease, fluorogenic substrate Ex360/Em465; active compounds read low; AID 577;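 active = z-score at -3 or under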;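 note: score is relative to mean and spread of the compound wells of a plate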
# Target sequence (P06935 1371-1501 limits assumed): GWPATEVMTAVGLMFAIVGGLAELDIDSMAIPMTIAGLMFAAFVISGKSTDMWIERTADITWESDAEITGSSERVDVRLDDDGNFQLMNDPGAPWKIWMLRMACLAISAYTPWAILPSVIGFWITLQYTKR
# Target sequence (P06935 1502-1679 limits assumed): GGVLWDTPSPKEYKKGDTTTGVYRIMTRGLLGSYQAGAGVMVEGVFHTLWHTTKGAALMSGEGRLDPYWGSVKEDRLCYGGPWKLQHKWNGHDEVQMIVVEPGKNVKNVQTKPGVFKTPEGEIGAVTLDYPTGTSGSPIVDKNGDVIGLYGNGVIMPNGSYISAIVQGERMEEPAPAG
# Numbers without * were called inactive; i = inactive; x = not tested or not shown.
CC(=O)NC(C)C(c1cccs1)N1CCN(c2ccccc2)CC1 (stereo not given)
  Hsc70: 1.4%
  MT1-MMP reporter: i
  WNV NS2B-NS3 inh: -0.37

O=C(Nc1ccc(S(=O)(=O)N2CCN(c3ccccc3)CC2)cc1)c1cccs1
  Hsc70: 1.9%
  MT1-MMP reporter: i
  WNV NS2B-NS3 inh: x

O=C(c1c(Cl)nc2sccn12)N1CCN(c2cccc(Cl)c2)CC1
  Hsc70: -3.9%
  MT1-MMP reporter: 49µM*
  WNV NS2B-NS3 inh: -0.93

Cc1ccc(Cn2nnc3c(=O)[nH]c(C4CCN(S(=O)(=O)c5ccc(F)cc5)CC4)nc32)cc1
  Hsc70: -1.9%
  MT1-MMP reporter: i
  WNV NS2B-NS3 inh: 0.69

Cn1c(=O)n(CCc2ccccc2)c(=O)c2c1nc1n2CCN1c1ccccc1
  Hsc70: 0.1%
  MT1-MMP reporter: i
  WNV NS2B-NS3 inh: 1.6

Cc1ccccc1C(=O)NCCSc1ccccc1
  Hsc70: -4.3%
  MT1-MMP reporter: i
  WNV NS2B-NS3 inh: x

CCN(CC)CCN1C(=O)C(=O)/C(=C(/O)c2c(C)[nH]c(C(=O)OC)c2C)C1c1ccccc1OC (stereo not given)
  Hsc70: 5.4%
  MT1-MMP reporter: i
  WNV NS2B-NS3 inh: -0.33

CSc1nnc2c3c4c(sc3c(=O)n(-c3ccccc3)n12)CC(C)(C)OC4
  Hsc70: -7.4%
  MT1-MMP reporter: i
  WNV NS2B-NS3 inh: 0.59

O=C(NCc1ccccc1)c1cc(S(=O)(=O)N2CCC3(CC2)OCCO3)ccc1F
  Hsc70: 0.8%
  MT1-MMP reporter: i
  WNV NS2B-NS3 inh: 1.2

O=C1c2cccnc2C(O)N1Cc1ccco1 (stereo not given)
  Hsc70: 1.9%
  MT1-MMP reporter: i
  WNV NS2B-NS3 inh: 1.4

Cc1ccc(C(=O)Nc2sc3c(c2C(=O)O)CCCCC3)o1
  Hsc70: -5.8%
  MT1-MMP reporter: i
  WNV NS2B-NS3 inh: -1.3

CCOC(=O)C1=C(C)N=C2SCCC(=O)N2C1c1cc(Br)ccc1OC (stereo not given)
  Hsc70: 4.1%
  MT1-MMP reporter: i
  WNV NS2B-NS3 inh: -0.08

O=C(Nc1ccccc1)Nc1ccc(S(=O)(=O)N2CCCCC2)cc1
  Hsc70: 3.6%
  MT1-MMP reporter: i
  WNV NS2B-NS3 inh: 0.26

CC(c1nnc(SCC(=O)Nc2ccc3[nH]c(=O)[nH]c3c2)n1Cc1ccccc1)N(C)C (stereo not given)
  Hsc70: -3.3%
  MT1-MMP reporter: i
  WNV NS2B-NS3 inh: -0.48

N#Cc1cn(Cc2cccc(Cl)c2)c2ccccc12
  Hsc70: 0.4%
  MT1-MMP reporter: i
  WNV NS2B-NS3 inh: -0.26

# Arranged by molecular weight (smallest number first): some entries from above
Cc1ccccc1C(=O)NCCSc1ccccc1
  Hsc70: -4.3%
  MT1-MMP reporter: i
  WNV NS2B-NS3 inh: x

Cc1ccc(C(=O)Nc2sc3c(c2C(=O)O)CCCCC3)o1
  Hsc70: -5.8%
  MT1-MMP reporter: i
  WNV NS2B-NS3 inh: -1.3

CC(c1nnc(SCC(=O)Nc2ccc3[nH]c(=O)[nH]c3c2)n1Cc1ccccc1)N(C)C (stereo not given)
  Hsc70: -3.3%
  MT1-MMP reporter: i
  WNV NS2B-NS3 inh: -0.48

Cc1ccc(Cn2nnc3c(=O)[nH]c(C4CCN(S(=O)(=O)c5ccc(F)cc5)CC4)nc32)cc1
  Hsc70: -1.9%
  MT1-MMP reporter: i
  WNV NS2B-NS3 inh: 0.69

CCN(CC)CCN1C(=O)C(=O)/C(=C(/O)c2c(C)[nH]c(C(=O)OC)c2C)C1c1ccccc1OC (stereo not given)
  Hsc70: 5.4%
  MT1-MMP reporter: i
  WNV NS2B-NS3 inh: -0.33

# Returning to the listing; the four compounds before the break are reprinted first.
CCOC(=O)C1=C(C)N=C2SCCC(=O)N2C1c1cc(Br)ccc1OC (stereo not given)
  Hsc70: 4.1%
  MT1-MMP reporter: i
  WNV NS2B-NS3 inh: -0.08

O=C(Nc1ccccc1)Nc1ccc(S(=O)(=O)N2CCCCC2)cc1
  Hsc70: 3.6%
  MT1-MMP reporter: i
  WNV NS2B-NS3 inh: 0.26

CC(c1nnc(SCC(=O)Nc2ccc3[nH]c(=O)[nH]c3c2)n1Cc1ccccc1)N(C)C (stereo not given)
  Hsc70: -3.3%
  MT1-MMP reporter: i
  WNV NS2B-NS3 inh: -0.48

N#Cc1cn(Cc2cccc(Cl)c2)c2ccccc12
  Hsc70: 0.4%
  MT1-MMP reporter: i
  WNV NS2B-NS3 inh: -0.26

C=CCn1c(SCC(=O)Nc2sccc2C(N)=O)nc2ccccc2c1=O
  Hsc70: -2.1%
  MT1-MMP reporter: i
  WNV NS2B-NS3 inh: x

O=C(Nc1ccc(S(=O)(=O)N2CCCCCC2)cc1)C1CCCO1 (stereo not given)
  Hsc70: -4.3%
  MT1-MMP reporter: i
  WNV NS2B-NS3 inh: -1.2

Nc1nnc(SCC(=O)Nc2ccc3c(c2)OCCO3)s1
  Hsc70: 1.1%
  MT1-MMP reporter: i
  WNV NS2B-NS3 inh: x

O=C(CN1CCC(O)(c2ccccc2F)CC1)NCCc1c[nH]c2ccccc12
  Hsc70: -0.5%
  MT1-MMP reporter: i
  WNV NS2B-NS3 inh: 0.0095

CCn1c(=O)cc(OCC(=O)Nc2ccc3c(c2)OCCO3)c2ccccc21
  Hsc70: -3.3%
  MT1-MMP reporter: i
  WNV NS2B-NS3 inh: -1.1

CCC(C)c1ccccc1NC(=O)C1CCCO1 (stereo not given)
  Hsc70: 1.5%
  MT1-MMP reporter: i
  WNV NS2B-NS3 inh: x

Cc1cc(N(C)C)c(C#N)c(N2CCCCC2)n1
  Hsc70: 2.9%
  MT1-MMP reporter: i
  WNV NS2B-NS3 inh: 1.4

Nc1ccc(C23CC4CC(CC(O)(C4)C2)C3)cc1
  Hsc70: 3.3%
  MT1-MMP reporter: i
  WNV NS2B-NS3 inh: -1.2

CSc1nnc2c(n1)OC(c1ccsc1)N(C(C)=O)c1ccccc1-2 (stereo not given)
  Hsc70: -1.1%
  MT1-MMP reporter: i
  WNV NS2B-NS3 inh: 0.02

COc1ccccc1-c1noc(-c2ccccc2C(=O)Nc2cccnc2)n1
  Hsc70: -5.2%
  MT1-MMP reporter: i
  WNV NS2B-NS3 inh: x

CC(=O)Nc1c(-c2ccc(F)cc2)nc2ccccn12
  Hsc70: 0.9%
  MT1-MMP reporter: i
  WNV NS2B-NS3 inh: -0.07

O=C(O)c1ccc(OCC(O)Cn2cnc3ccccc32)cc1 (stereo not given)
  Hsc70: 0.7%
  MT1-MMP reporter: i
  WNV NS2B-NS3 inh: 1.4

CS(=O)(=O)N1CCCC(C(=O)NCc2ccc(F)cc2)C1 (stereo not given)
  Hsc70: -3.3%
  MT1-MMP reporter: i
  WNV NS2B-NS3 inh: -0.91

CCC1Nc2ccccc2-c2nnc(SC)nc2O1 (stereo not given)
  Hsc70: -2.6%
  MT1-MMP reporter: i
  WNV NS2B-NS3 inh: x

Cc1ccc2oc(=O)c3cc(C(=O)N4CCN(c5ncccn5)CC4)sc3c2c1
  Hsc70: -2.4%
  MT1-MMP reporter: i
  WNV NS2B-NS3 inh: -0.81

# Individual results from the entries so far.
# O=C(Nc1ccc(S(=O)(=O)N2CCN(c3ccccc3)CC2)cc1)c1cccs1 in Hsc70 → 1.9%
# CS(=O)(=O)N1CCCC(C(=O)NCc2ccc(F)cc2)C1 (stereo not given) in WNV NS2B-NS3 inh → -0.91
# CSc1nnc2c(n1)OC(c1ccsc1)N(C(C)=O)c1ccccc1-2 (stereo not given) in Hsc70 → -1.1%
# CCC1Nc2ccccc2-c2nnc(SC)nc2O1 (stereo not given) in Hsc70 → -2.6%
# CCOC(=O)C1=C(C)N=C2SCCC(=O)N2C1c1cc(Br)ccc1OC (stereo not given) in WNV NS2B-NS3 inh → -0.08
# Nc1nnc(SCC(=O)Nc2ccc3c(c2)OCCO3)s1 in Hsc70 → 1.1%

# (further entries)
COc1ccc(-c2nc3cccc(C)n3c2NCc2ccco2)cc1OC
  Hsc70: -2.7%
  MT1-MMP reporter: i
  WNV NS2B-NS3 inh: 0.46

N#CC1=C(N)C(C#N)(C#N)[C@H](c2ccsc2)[C@H]2COCC=C12
  Hsc70: -1.1%
  MT1-MMP reporter: i
  WNV NS2B-NS3 inh: -0.13

CCOC(=O)CSc1nnc(CNC(=O)c2ccc(S(=O)(=O)N3CCCC3)cc2)n1C
  Hsc70: -3.2%
  MT1-MMP reporter: i
  WNV NS2B-NS3 inh: -1.1

COc1cc(C(=O)Nc2ccc3c(c2)OCCO3)c(-n2cnnn2)cc1OC
  Hsc70: 4.9%
  MT1-MMP reporter: i
  WNV NS2B-NS3 inh: 0.31

Cc1nn(Cc2ccccc2)c2c1C(c1cccnc1)C(C#N)=C(N)O2 (stereo not given)
  Hsc70: 0.3%
  MT1-MMP reporter: i
  WNV NS2B-NS3 inh: x

CCn1nnnc1SCC(=O)Nc1nnc(C(C)C)s1
  Hsc70: 4.9%
  MT1-MMP reporter: i
  WNV NS2B-NS3 inh: -0.26

Cn1c(CCNC(=O)c2cccs2)nnc1SCC(=O)Nc1nc(-c2ccccc2)cs1
  Hsc70: 7.8%
  MT1-MMP reporter: i
  WNV NS2B-NS3 inh: -0.4

CCCNC(=O)c1n[nH]c(=O)c2ccccc12
  Hsc70: -3.5%
  MT1-MMP reporter: i
  WNV NS2B-NS3 inh: 1.5

COC(=O)c1[nH]c2ccc(Cl)cc2c1NC(=O)CN1CCc2cc(OC)c(OC)cc2C1
  Hsc70: -1.8%
  MT1-MMP reporter: i
  WNV NS2B-NS3 inh: -0.27

CSc1nc(C)cc(C)c1C#N
  Hsc70: 2.5%
  MT1-MMP reporter: i
  WNV NS2B-NS3 inh: x

C=CCOc1nc2c(c(=O)n(Cc3ccc(Cl)c(Cl)c3)c(=O)n2C)n1C
  Hsc70: -1.8%
  MT1-MMP reporter: i
  WNV NS2B-NS3 inh: -0.02

O=C(Nc1cccc(-c2nc3cccnc3s2)c1)c1ccco1
  Hsc70: -4.3%
  MT1-MMP reporter: i
  WNV NS2B-NS3 inh: 0.4

CC(C)NCc1c(O)c(Br)cc2oc3c(c12)CCCC3
  Hsc70: 0.4%
  MT1-MMP reporter: i
  WNV NS2B-NS3 inh: -4*

COC(=O)Nc1nnc(-c2ccncc2)s1
  Hsc70: 7.1%
  MT1-MMP reporter: i
  WNV NS2B-NS3 inh: 2.6

Cc1cc(NCCCn2ccnc2)n2ncc(-c3ccc(Cl)cc3)c2n1
  Hsc70: 2.5%
  MT1-MMP reporter: 8.7µM*
  WNV NS2B-NS3 inh: x

CCc1nnc(NC(=O)CSc2nnc(-c3ccncc3)n2Cc2ccccc2)s1
  Hsc70: -5.0%
  MT1-MMP reporter: i
  WNV NS2B-NS3 inh: -1

COc1ccc(OC)c(-c2cc(C(=O)NCCCn3ccnc3)no2)c1
  Hsc70: -0.5%
  MT1-MMP reporter: i
  WNV NS2B-NS3 inh: 0.25

C=CCn1c(SCC(=O)Nc2ccc(NC(=O)c3ccco3)c(OC)c2)nnc1-c1ccncc1
  Hsc70: -2.1%
  MT1-MMP reporter: i
  WNV NS2B-NS3 inh: 0.2

O=C(COc1ccc(Cl)cc1)NCc1nnc(SCC(=O)NCc2ccc3c(c2)OCO3)o1
  Hsc70: 4.2%
  MT1-MMP reporter: i
  WNV NS2B-NS3 inh: -2.8

Cc1cccc2cc(CN(CCc3ccccc3)C(=O)N3CCOCC3)c3nnnn3c12
  Hsc70: 1.0%
  MT1-MMP reporter: i
  WNV NS2B-NS3 inh: -1.3

COc1ccc(C(c2nnnn2C2CCCCC2)N2CCN(c3ccc(OC)cc3)CC2)cc1 (stereo not given)
  Hsc70: 3.6%
  MT1-MMP reporter: i
  WNV NS2B-NS3 inh: 0.82

CCC(C)C(N)C(=O)NC(CCC(=O)OCc1ccccc1)C(N)=O (stereo not given)
  Hsc70: 3.8%
  MT1-MMP reporter: i
  WNV NS2B-NS3 inh: -1.1

Cc1ccc(NC(=O)CCC(=O)OCC(F)(F)C(F)F)cc1
  Hsc70: -1.9%
  MT1-MMP reporter: i
  WNV NS2B-NS3 inh: -0.75

Cc1ccc(C(=O)NCC2CCCO2)o1 (stereo not given)
  Hsc70: -4.6%
  MT1-MMP reporter: i
  WNV NS2B-NS3 inh: 0.16

Cn1nnnc1SCc1ccc(F)cc1
  Hsc70: -1.3%
  MT1-MMP reporter: i
  WNV NS2B-NS3 inh: -0.61

COc1cccc(C2CC(=O)Nc3c2c(=O)n(C)c(=O)n3C)c1OC (stereo not given)
  Hsc70: 5.8%
  MT1-MMP reporter: i
  WNV NS2B-NS3 inh: 0.09

# Screens (PubChem)

# Compounds as they come; about 0.8% have a hit in one of these screens.
